# RE007 growth inh = qHTS Assay for Inhibitors of the HIV-1 protein Vpr; S. pombe RE007 Vpr strain, BacTiter-Glo ATP luminescence, 24 h; control for the full effect not named in the record; Potency, µM (highest dose often 92.2 µM), inactives show at the highest dose activity change, negative = less growth; 0.21% of 360,000 active; AID 651644, 2012; active = well fitted falling curve with a large enough effect; inconclusive = small, poorly fitted or top-dose-only effect; inactive = no such curve, though single readings can be large or run the other way;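 note: nearly all actives have a fitted effect of over 50% in size; the assay follows cell death caused by Vpr and the record does not say whether a fall means rescue or toxicity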
#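 Fission yeast strain RE007, carrying one chromosomally integrated HIV-1 vpr copy, was seeded at OD 0.01 in PMG+AL medium with 23 nL pinned compound. After 24 h at 30 °C and 99% humidity, viability was read by BacTiter-Glo luminescence.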
# StopGo reporter = High Throughput Screening for Foot and Mouth Disease Virus Antivirals. human cells with a luciferase reporter of 2A StopGo recoding; control for the full effect not named in the record. Potency, µM (titrated, usually from 57.9 µM), inactives show at the top dose signal change, negative = less light. 1.2% of 410,000 active. AID 1159524, 2015; active = well fitted falling curve with a large enough effect; inconclusive = small, poorly fitted or top-dose-only effect; inactive = no such curve, though single readings can be large or run the other way; tested in HEK293T cells; note: nearly all actives have a fitted effect of over 45% in size; luciferase light after 4 h
# * = called active by the depositor; ? = inconclusive; [ ] = another dose, or the depositor's remark. % is set by controls: 0 for no effect and ±100 for the full control effect; potency is the fitted concentration of half-maximal effect.
Compound | RE007 growth inh | StopGo reporter
O=C1CCC(OCc2ccccc2)CCN1[C@H](CSc1ccccc1)Cc1ccccc1 (stereo partly drawn) | 5% | 7%
OC[C@@H]1CN(Cc2cccnc2)C[C@H](n2cnc3c(NC4CCCC4)ncnc32)O1 | 3% | 0%
COCOCCn1cc(CN2CCS(=O)(=O)N(Cc3ccc(-c4ccc(OC)cc4)cc3)C(CC(C)C)C2=O)nn1 (stereo not drawn) | 7% | ?
C[C@H](CO)N1C[C@H](C)[C@@H](CN(C)S(=O)(=O)c2cccc(F)c2)OCc2cnnn2CCCC1=O | 14% | -21%
CCCC(=O)N1CCC1(C)C(=O)NS(=O)(=O)c1ccc(C)cc1 (stereo not drawn) | -5%[18.4 µM] | -1%
COc1ccc(OC(F)(F)F)cc1CC1(C)C(=O)Nc2ccc(-c3ccsc3)cc21 (stereo not drawn) | -3% | 0%
COC(=O)C[C@H]1CC[C@@H](NC(=O)Nc2cccc(OC)c2)[C@@H](CO)O1 | 4% | -15%
C/C(=N\Nc1ccccn1)c1ccc(Br)s1 | ? | 0%
CC(C)CC1C(=O)N(Cc2cn(CCC3OCCCO3)nn2)CCS(=O)(=O)N1Cc1ccc(-c2cccc(CO)c2)cc1 (stereo not drawn) | -12% | 0%
CC1(Cc2ccc(Cl)cc2)C(=O)Nc2ccc(-c3cccnc3)cc21 (stereo not drawn) | 7% | -27%
CCNC(=O)C1(C)CCN(C(=O)c2cccc(Cl)c2)C1 (stereo not drawn) | 12% | -1%
CC(C)(C)Cc1c(-c2cccc(Cl)c2)nc2ccc(Br)cn12 | -21% | 9%
CCNC(=O)C1(C)CCCN(C(=O)c2ccc(OC)c(F)c2)C1 (stereo not drawn) | -5%[18.4 µM] | -2%
Cc1ccc(S(=O)(=O)N2Cc3ccccc3CC2C(=O)N(C)C)cc1 (stereo not drawn) | -2% | -2%
COc1ccccc1-c1ccc2c(c1)C(C)(Cc1cc(Cl)ccc1C(F)(F)F)C(=O)N2 (stereo not drawn) | -12%[18.4 µM] | -29%
O=C(c1ccc2c(=O)n3c(nc2c1)CCC3)N1CCN(S(=O)(=O)c2ccccc2Br)CC1 | -14% | -13%
COc1ccccc1-c1ncn(Cc2cccc(-c3ccccc3)c2)c1-c1ccco1 | -29% | ?
CCCCCCn1cc(CN2CC(N3CCN(CCN(C)C)CC3)CS2(=O)=O)nn1 (stereo not drawn) | -8% | -14%
OC(c1ccc(F)cc1)c1nc(-c2cccs2)cs1 (stereo not drawn) | -7%[18.4 µM] | 27%
CCOc1ccc(CCNC(=O)COC(=O)c2ccc(C)c(S(=O)(=O)N3CCOCC3)c2)cc1OCC | -9% | -15%
CCc1nc2ccc(C(=O)NCCNC(C)=O)cn2c1N(CC)Cc1cccc(Br)c1 | -14% | -28%
CCN(C(=O)c1cc(OC)c(OC)c(OC)c1)C1CCCCC1 | -6% | 2%
CCCC(C)(C)C(=O)N1CCC1(C)C(=O)Nc1cccc2ccccc12 (stereo not drawn) | 3%[18.4 µM] | -16%
NC(Cc1ccccc1)c1csc(Nc2ccc(C(=O)NCCCO)cn2)n1 (stereo not drawn) | -12% | -8%
Cc1ccc(CNC(=O)[C@H]2O[C@@H](n3cnc4c(N)ncnc43)[C@H](O)[C@@H]2O)o1 | 12% | -21%

# (list continues)
Compound | RE007 growth inh | StopGo reporter
CCOC(=O)c1c(-c2cc(OC)c(OC)c(OC)c2)csc1NC(=O)c1ccccc1 | -4% | -28%
O=C(NCc1ccccc1)c1cc(C2COCCN2C(=O)C2CC2)on1 (stereo not drawn) | 12%[18.4 µM] | -1%
COc1cc(C2(c3ccc(O)c(OC)c3)C(=O)Nc3c(Br)cc(Br)cc32)ccc1O | 13% | -21%
Cc1cc(C)c(NC(=O)C2C(=O)Nc3ccccc3C(=O)N2C(C)(C)C)c(C)c1 (stereo not drawn) | 2% | -16%
O=C(CC[C@H]1O[C@@H](n2ccc(=O)[nH]c2=O)[C@H](O)[C@@H]1O)N[C@@H](Cc1ccccc1)C(=O)NCc1ccccc1 | 10% | -14%
CCc1cc(-c2nnn(CCC3COCCO3)c2CC)ccc1-c1cn(Cc2ccc3ccccc3c2)nn1 (stereo not drawn) | -2% | -21%
CCc1nc2c(OCc3ccc(OC)cc3)cccn2c1N(C)C(=O)c1ccco1 | -13% | -10%
COC(=O)[C@]12CCCCC=C1N(Cc1cccc3ccccc13)C(=O)[C@H](CC(=O)NCc1ccc(C)o1)C2 | -2% | ?
CCCCCCCCN1C(=O)[C@H](CC(=O)N2CCN(C(=O)C3CC3)CC2)C[C@@]2(C(=O)OC)CC(C)(C)CC=C12 | ? | -23%
CCc1nc2ccc(C(=O)NCCNC(C)=O)cn2c1N(C)Cc1ccc(OC)cc1 | -5% | -12%
Cc1nc(C(F)(F)F)ccc1C(=O)N1CCCCCC1(C)C(=O)NCC(C)C (stereo not drawn) | -8% | -14%
O=C(COc1ccc([N+](=O)[O-])cc1)NNC(=O)C1COc2ccccc2O1 (stereo not drawn) | 8% | -18%
O=C1NC(Cc2ccccc2)c2nc3ccc(Br)cc3c(=O)n2-c2cc3ccccc3cc21 (stereo not drawn) | -14% | -19%
CCC[C@H]1CN(c2ccccc2)C(=O)[C@@H]1CC(=O)Nc1ccc(OC)cc1 | -7% | -23%
CCN(CC)C(=O)C1=C(C)N(Cc2ccc(F)cc2)C(=O)C(CC(=O)NC2CCCC2)C1 (stereo not drawn) | 10% | -1%
Cc1cc(-c2ccc3c(c2)COc2c4ccccc4nn2-3)on1 | -17% | -17%
COCCCNc1ccn2nc(-c3ccc(OCc4ccccc4)cc3)cc2n1 | -1% | -20%
CC(=O)Oc1ccc2c(c1)C(=O)CCCCCC(=O)O2 | 0% | 14%
CO[C@H]1CN(C)C(=O)c2cc(NC(=O)C3CCOCC3)ccc2OC[C@H](C)N(Cc2nccs2)C[C@H]1C | 14% | -11%
CC(=O)N1CC2(CC(c3ccc(Cl)cc3Cl)=NO2)CN1c1cccc(Cl)c1 (stereo not drawn) | 3% | -8%
COc1ccc(CC(=O)N(CCC2=CCCCC2)c2c(N)n(Cc3ccccc3)c(=O)[nH]c2=O)cc1 | -8% | -22%
Cc1ccc(C)c(NC(=O)C2(C)CCN2C(C)C)c1 (stereo not drawn) | -7% | -24%
COc1ccncc1-c1ccc(C2=CC(=O)CC(C)(C)C2=O)cc1 | -1% | 0%
O=C(NCCc1ccc2c(c1)OCO2)Oc1ccccc1 | 4% | 14%
CCN1C(=O)[C@@H]2[C@@H]3CN(S(=O)(=O)c4ccc(C)cc4)[C@@H](c4ccccc4)[C@@H]3C(=O)C[C@@H]2C1=O | 4% | -11%

# (list continues)
Compound | RE007 growth inh | StopGo reporter
COc1cccc(CNC(=O)[C@@H]2CCCN2C(=O)[C@H]2CCCCN2C(=O)c2c(F)cccc2F)c1 | -5% | -19%
COc1ccc(S(=O)(=O)N2CCC(C(=O)NCCC(=O)NCc3cccnc3)CC2)cc1 | -8% | -11%
Cc1ccc(S(=O)(=O)NC(=O)NC2=NC(C)(C)N(c3ccc(Cl)c(Cl)c3)C(N)=N2)cc1 | 5% | 12%
Clc1cc(Cl)cc(C2=NC(Cc3ccccc3)CO2)c1 (stereo not drawn) | 0% | -3%
CC(C)(C)c1ccc(CC(=O)N2CCC2(C)C(=O)NS(=O)(=O)c2ccc(Cl)s2)cc1 (stereo not drawn) | 8%[18.4 µM] | -2%
CC1(C(=O)Nc2cccc3c2CCCC3)CCN1C(=O)C1(c2ccccc2)CC1 (stereo not drawn) | 10% | -18%
CCOC(=O)c1c(-c2cc(OC)c(OC)c(OC)c2)csc1N | 9% | -29%
CCc1nc2c(OCc3ccc(OC(F)F)cc3)cccn2c1N(C)C(=O)c1ccco1 | -19% | -21%
O=C1N[C@@H](Cc2cn(S(=O)(=O)c3ccccc3)c3ccccc23)C(=O)N[C@H]1Cc1ccccc1 | -7% | -23%
CC1=C(C(=O)N2CCOCC2)CC(CC(=O)NCc2cccc3ccccc23)C(=O)N1Cc1ccccc1 (stereo not drawn) | -7% | -14%
Cn1c(CCN2CCCC2)nc2cc(NC(=O)COc3ccc(Cl)cc3)ccc21 | -15% | -1%
Cc1ccc(-c2ccc3c(c2)O[C@H](CN(C)Cc2cncnc2)[C@@H](C)CN([C@H](C)CO)S3(=O)=O)cc1 | ? | 38%[activator]
CCCCOCCCNC(=O)C[C@@H]1C[C@@]2(C(=O)OC)CCCCC=C2N(CCC2=CCCCC2)C1=O | 0% | -21%
CCc1nc2ccc(C(=O)Nc3cccc(NS(C)(=O)=O)c3)cn2c1N(C)CCN1CCOCC1 | -27% | -3%
CSCCNC(=O)C1(C)CCN1C(=O)CCc1ccccc1 (stereo not drawn) | 0% | -23%
Cc1ccc([C@H]2N[C@]3(CCCN(CC4CCCCC4)C3=O)[C@H]3C(=O)N(Cc4ccccc4)C(=O)[C@@H]23)cc1 | 15% | 0%
COCCNC(=O)C1(C)CCCN(Cc2ccc(C)c3ccccc23)C1 (stereo not drawn) | -18% | -14%
COc1ccc(OC)c(CN2CCN(C(=O)c3cccc(S(=O)(=O)N(C)c4ccccc4)c3)CC2)c1 | -14% | ?
CCCc1c(C(=O)N/N=C/C2CC=CCC2)nnn1-c1nonc1N (stereo not drawn) | -9% | -22%
COc1ccc([C@H]2C[C@H](O)C[C@@H](CCn3cc(-c4ccccc4)nn3)O2)cc1 | 8% | -19%
C=CCOc1c(Cl)cc(Cl)cc1S(=O)(=O)NCCO | 7% | 50%[activator]
CCS(=O)(=O)N1Cc2cc(C(=O)N(C)C)nc(-c3cccc(-c4ccc(F)cc4)c3)c2[C@H]1CCO | 23% | -24%
Clc1ccc(-c2nc3ccc(Cl)cn3c2Cc2cccc(Cl)c2)cc1 | 3% | 34%[activator]
COc1ccc(OC)c(NC(=O)C2CCCN2S(=O)(=O)c2ccc3c(c2)CC(C)N3C(C)=O)c1 (stereo not drawn) | -14% | 0%
CCc1nc2ccc(C(=O)NCCc3ccccn3)cn2c1N(C)Cc1ccc(N(C)C)cc1 | -17% | -5%

# New compounds follow.
Compound | RE007 growth inh | StopGo reporter
Cc1ccc(S(=O)(=O)Nc2ccccc2O)cc1 | 0% | 9%
CC(C)NC(=O)c1onc(CSc2ccncc2)c1C(=O)NC(C)C | 4% | -8%
NC(=O)c1ccc(NC(=O)COC(=O)C23CC4CC(CC(C4)C2)C3)cc1 | 22% | -14%
Cc1ccc(S(=O)(=O)N2[C@@H](Cc3ccccc3)CO[C@H]2CC(=O)c2cccc3ccccc23)cc1 | 3% | -6%
CC(O)(c1ccccc1)c1nc(-c2ccc(S(C)(=O)=O)cc2)cs1 (stereo not drawn) | 6%[18.4 µM] | -26%
COc1ccc(NC(=O)C[C@@H]2C(=O)N(Cc3ccccc3)CC2(C)C)cc1 | -8% | -8%
COCCNc1ncnc2c1ncn2[C@H]1CN(Cc2ccc(OC)cc2)C[C@@H](CO)O1 | 3% | -5%
C#CCNC(=O)C1=C[C@@H](C)[C@H](CCCO)[C@@H](OCC)O1 | 0% | -17%
CN(CC(=O)Nc1ccc(Cl)c(C(F)(F)F)c1)C(=O)COc1cccc2cccnc12 | 17% | -15%
COC(=O)C1=CN(c2cccc(OCc3ccccc3)c2)C(N)=C(C#N)C1c1cccc(F)c1 (stereo not drawn) | -7% | -19%
CC(C)c1cc(Cn2c3ccccc3c(=O)n2C(C)Cn2cc(COc3ccccc3)nn2)on1 (stereo not drawn) | 6% | -25%
CC(=O)C1=CCC(c2ccc(Cl)c(Cl)c2)N(S(=O)(=O)c2ccc(C)cc2)C1 (stereo not drawn) | 0% | ?
Cc1ccc(NC(=O)COC(=O)c2ccc3ncsc3c2)c(C)c1 | 13% | -21%
COc1cccc(C(O)c2nc(-c3ccc(Cl)cc3)cs2)c1 (stereo not drawn) | -10%[18.4 µM] | ?
CC1(C(=O)NS(=O)(=O)Cc2ccccc2C(F)(F)F)CCN1C(=O)Cc1ccsc1 (stereo not drawn) | -5%[18.4 µM] | -16%
CN1C(=O)CN=C(c2ccc[nH]2)c2cc(Cl)ccc21 (tested in a mixture with another compound) | -12% | -9%
CCOC(=O)C(Cc1ccccc1)C1(C)Oc2ccccc2O1 (stereo not drawn) | 12% | -8%
Cc1cc(C(O)c2ncc(-c3ccccc3)[nH]2)ccc1F (stereo not drawn) | -23% | 60%[activator]

# An excerpt of these results, with values under each structure:
# Results follow in this order: RE007 growth inh, StopGo reporter
Cc1ccc(NC(=O)COC(=O)c2ccc3ncsc3c2)c(C)c1
    13%, -21%
COCCNc1ncnc2c1ncn2[C@H]1CN(Cc2ccc(OC)cc2)C[C@@H](CO)O1
    3%, -5%
CC(=O)C1=CCC(c2ccc(Cl)c(Cl)c2)N(S(=O)(=O)c2ccc(C)cc2)C1 (stereo not drawn)
    0%, ?
C#CCNC(=O)C1=C[C@@H](C)[C@H](CCCO)[C@@H](OCC)O1
    0%, -17%
CN1C(=O)CN=C(c2ccc[nH]2)c2cc(Cl)ccc21 (tested in a mixture with another compound)
    -12%, -9%
CC(C)c1cc(Cn2c3ccccc3c(=O)n2C(C)Cn2cc(COc3ccccc3)nn2)on1 (stereo not drawn)
    6%, -25%
Cc1ccc(S(=O)(=O)N2[C@@H](Cc3ccccc3)CO[C@H]2CC(=O)c2cccc3ccccc23)cc1
    3%, -6%

# This is a subset. The share of hits here may be higher or lower than overall.
